# Screening results from PubChem.
# VACV mCherry inh: inhibitors of vaccinia virus infection (mCherry reporter signal) | Vaccinia virus mCherry reporter infection, fluorescence; about a quarter of the inactives have no number | Potency, µM (highest dose often 36.5 µM), inactives show at the highest dose activity change, negative = inhibition, usual class: inhibitors | 0.63% of 310,000 active; active = well fitted inhibition curve with a large enough effect; inconclusive = small, poorly fitted or top-dose-only effect; inactive = no such curve, though single readings can be large or run the other way; tested in A549 cells; note: nearly all actives have a fitted effect of over 35% in size; inactives centre near -10
# VACV Venus inh: vaccinia inhibition (Venus reporter); Vaccinia virus Venus reporter expression, fluorescence; Potency, µM (top dose mostly 36.5 µM), without a hit: at the highest dose activity change, negative = inhibition, actives largely listed as inhibitors; 0.46% of 330,000 active; active means well fitted inhibition curve with a large enough effect; inconclusive means small, poorly fitted or top-dose-only effect; inactive means no such curve, though single readings can be large or run the other way; tested in A549 cells; note: nearly all actives have a fitted effect of over 30% in size; inactives centre near -10
# * marks the source's active call; other numbers are inactive results; i = inactive; ? = inconclusive; / = not tested or not shown; & = joins results of further samples; [ ] = another dose, or the depositor's remark. % is set by controls: 0 for no effect and ±100 for the full control effect; potency is the fitted concentration of half-maximal effect.
cpd	Structure	VACV mCherry inh	VACV Venus inh
1	Cc1nc(N[C@@H](Cc2ccccc2)C(=O)O)c2oc3ccccc3c2n1	/	-14%
2	COc1cccc(NC(=O)CN2C(=O)CSc3ccc(S(=O)(=O)N4CCC(C)CC4)cc32)c1	?	-20%
3	CCOc1ccc(N2C(=O)CC(N3CCN(c4ccccc4F)CC3)C2=O)cc1 (stereo unspecified)	-6%	-15%
4	CCN1C[C@@H]2[C@@H]3C(=O)N(Cc4ccccc4)C(=O)[C@@H]3[C@](Cc3ccccc3)(C1=O)N2C(=O)c1ccc(Cl)cc1	0%	-12%
5	NN/C(=C\[N+](=O)[O-])Nc1ccccc1	?	-6%
6	Cc1nccc2c1[nH]c1ccc(Br)cc12	?	?
7	c1ccc2sc(N3CCNCC3)nc2c1	-7%	8%
8	Cc1cccc(NC(=O)c2cc(Cl)ccc2[N+](=O)[O-])c1	6.3µM*	?
9	C=CCn1c(SCc2ccc3nonc3c2)nnc1-c1cccs1	?	-18%
10	O=C(NCc1ccco1)C1CCCN(S(=O)(=O)c2cccc3cccnc23)C1 (stereo unspecified)	-10%	-6%
11	CC(C)n1c(=O)[nH]c2ccccc21	-22%	-6%
12	CC1CCCCC1NC(=O)C1CCC(CNS(=O)(=O)c2ccc(F)cc2)CC1 (stereo unspecified)	i	-12%
13	C=CC(=O)N1c2ccccc2Sc2ccc(NC(=O)OCC)cc21	/	?
14	CCn1c(SCC(=O)N2CCCCCC2)nc2c([nH]c3ccccc32)c1=O	-12%	-5%
15	COC(=O)CC1COc2ccccc2N1C(=O)c1cccc(C(F)(F)F)c1 (stereo unspecified)	i	-3%
16	CCC(=O)Nc1cccc(NC(=S)NC(=O)c2ccccc2Cl)c1	/	?
17	CCn1c2ccc(C)cc2c2nnc(SCCN3CCOCC3)nc21	-22%	?
18	Cc1ccc(-n2c(O)c(C=N)c(=O)n(-c3ccc(C)cc3)c2=O)cc1	-7%	-25%
19	O=c1[nH]oc(O)c1-c1ncc(C(F)(F)F)cc1Cl	i	-1%
20	Cc1ccc(Cl)cc1NC(=O)Cn1ncc2c(C)n(Cc3ccccc3F)c(C)c2c1=O	-11%[7.34 µM]	-4%[7.34 µM]
21	CSCCC(NC(=O)c1ccccc1Cl)C(=O)NCC1COc2ccccc2O1 (stereo unspecified)	-19%	-8%
22	COC(=O)CCCC(=O)NC(C)c1cnn(-c2ccccc2C)c1C (stereo unspecified)	i	-10%
23	COC(=O)CSc1nc2c(c(C3CC=CCC3)c1C#N)CCC2 (stereo unspecified)	/	5%
24	O=[N+]([O-])c1cc(CN2CCCC2)c2cccnc2c1O	-16%	-8%
25	CCCCOC(=O)c1ccc(NC(=O)c2cc(=O)c3ccccc3o2)cc1	?	?
26	O=C(CSc1nnc(CNC(=O)c2c(F)cccc2F)o1)c1ccc(Cl)cc1	-7%	-14%
27	COc1ccccc1CCN=C(N)NS(=O)(=O)c1cccs1	i	3%
28	COc1cc(C2C(C#N)=C(C)NC(C)=C2C#N)cc(OC)c1OC	-27%	-8%
29	COc1ccc([N+](=O)[O-])cc1N(CC(=O)NCCSc1ccc(C)cc1)S(C)(=O)=O	-5%	-19%
30	Cc1ccc(-c2noc(CNC(=O)c3ccoc3C)n2)cc1	-20%	0%
31	COc1ccc(N2CCN(C(=O)Cn3nc(Cc4cccnc4)c4ccccc4c3=O)CC2)cc1	-16%	-11%
32	Cc1c(N2C(=O)/C(=C\c3ccc(N(C)C)cc3)N(C)C2=S)c(=O)n(-c2ccccc2)n1C	i	168%[activator]
33	COc1ccc([C@H]2CC(=O)C=C(c3ccc(F)cc3OCc3ccccc3)C2)cc1	i	-28%
34	COc1cccc(C(=O)NCC(=O)NCc2cc(=O)n(C)c(=O)n2C)c1OC	i	-11%
35	C=C(C)C(=O)Nc1cccc(C2=NOC3(C2)C[C@@H](C(N)=O)N(C(=O)/C(C)=C/C)C3)c1 (stereo partly specified)	i	-14%
36	CCCCn1c(N)c(N(CC(C)C)C(=O)c2cccc(S(=O)(=O)N(C)c3ccc(C)cc3)c2)c(=O)[nH]c1=O	-28%	-19%
37	CCN(C[C@H]1N[C@@](CC)(C(=O)OC)[C@H]2C(=O)N(C)C(=O)[C@@H]12)C(=O)NC(C)C	-1%	13%
38	CC1CCCCN1C(=O)CSc1n[nH]c(-c2ccccc2Cl)n1 (stereo unspecified)	-9%	-12%
39	CCCCOC(=O)C1=C(C)NC(=O)NC1c1ccc([N+](=O)[O-])s1 (stereo unspecified)	i	-25%
40	COc1cc(C(=O)n2nc(-c3ccco3)nc2NCc2ccc(Cl)cc2)cc(OC)c1OC	-15%	-17%
41	Cn1cnc(S(=O)(=O)N2CCCCC2c2cc(C(=O)Nc3ccc(F)c(Cl)c3)no2)c1 (stereo unspecified)	33%[activator]	-2%
42	CNC(=O)NC(=O)CSc1nc2sccc2c(=O)n1-c1ccccc1	i	-11%
43	Cn1c(=O)c(C(=O)CN2CCc3ccccc32)c(N)n(Cc2ccccc2)c1=O	-3%	5%
44	COC(CNC(=O)C1CCN(C(=O)c2cc3oc(C)cc3n2Cc2c(F)cccc2Cl)CC1)OC	-14%	-4%
45	COC(=O)N[C@@H]1C[C@H]2[C@@H]3CC[C@H]4C[C@@H](OC)CC[C@]4(C)[C@H]3CC[C@]12C	-12%	-13%
46	Cn1c(CC(=O)Nc2ccccc2F)nnc1SCC(=O)NC1CCCC1	5%	0%
47	Cc1ncoc1C(=O)N1CCCC(C(=O)c2ccc(C(F)(F)F)cc2)C1 (stereo unspecified)	-2%	-6%
48	CC1=C(C(=O)Nc2cc(C)ccc2C)C2(CCCCCC2)OC1=O	i	-16%
49	COc1ccc2c3c1OC1CC(O)C=CC31CCN(C)C2 (stereo unspecified)	37%[activator]	-5%&2%
50	COc1ccc(CN2C(=O)C(NC(=O)c3ccccc3C)(C(F)(F)F)N=C2c2ccccc2)cc1 (stereo unspecified)	-4%	-2%
51	Cc1cccc(NC2=C(C#N)C(=O)NC3(CCCC3)S2)c1	i	-8%
52	O=C(Nc1cccc(-c2nc3cccnc3s2)c1)C1c2ccccc2Oc2ccccc21	-30%	?
53	COc1ccc(C(=O)NNC(=O)CSc2nc3c([nH]2)c(=O)n(C)c(=O)n3C)cc1	-18%	-2%
54	CCOC(=O)NCC(C#CCN(CC)CC)N(CC)CC (stereo unspecified)	/	2%
55	Cc1ccc(Nc2nc(N)nc(CSc3nncn3C)n2)cc1	-6%	-14%
56	Cc1ccccc1N(CC(=O)Nc1ccc(F)cc1)S(C)(=O)=O	0%	-12%
57	CCOc1cccc(OCCOCCNC(C)(C)C)c1	-8%	-3%
58	COCCNC(=O)c1onc(CSc2ccccc2)c1C(=O)O	i	-11%
59	CC(C)(C)c1nn(-c2ccccc2)c2[nH]c(=O)c(CNCc3ccco3)cc12	-17%	-22%
60	N#Cc1ccccc1S(=O)(=O)N1CCN(C(=O)CN2C(=O)NC3(CCCC3)C2=O)CC1	i	-5%

# (further entries)
cpd	Structure	VACV mCherry inh	VACV Venus inh
61	O=C(c1cccc([N+](=O)[O-])c1)N1CCN(c2ccc(N3CCOCC3)nn2)CC1	-20%	-10%
62	Cc1cc(C(=O)Nc2sccc2C#N)c2ccccc2n1	?	17%
63	CC(=O)NC12CC3CC(C1)CC(C(=O)N(C)Cc1cccc(Cl)c1Cl)(C3)C2	-7%	-18%
64	Cc1cccc(NC(=O)C2CCC(CNS(=O)(=O)c3ccc4c(c3)CCCC(=O)N4)CC2)c1C (stereo unspecified)	-8%	-18%
65	CC(Nc1cc(=O)n(C)c(=O)n1C)c1ccccc1 (stereo unspecified)	-22%	-18%
66	S=c1[nH]nc(Nc2ccccc2Cl)s1	4%	-3%
67	Cc1cccc(-c2nc(CS(=O)CC(=O)NC(C)CCc3ccccc3)c(C)o2)c1 (stereo unspecified)	-15%	-19%
68	Cc1ccc(C2=NNC(c3cccc(F)c3)S2)cc1 (stereo unspecified)	-8%	-7%
69	O=C(O)C1=C[C@H](c2ccc3c(c2)OCO3)C[C@H](OCc2ccc(CO)cc2)O1	i	-16%
70	CCC(=O)N1CCN(c2ccccc2NC(=O)Cc2ccccc2)CC1	/	-1%
71	C/C(=N/NC(=O)Nc1ccccc1)c1ccc(C)cc1	?	-28%
72	Nc1nc(N)c(N=O)c(N)n1	i	-14%
73	COc1ccc(N2CC(NS(=O)(=O)c3ccc4ccccc4c3)CC2=O)cc1OC (stereo unspecified)	i	-14%
74	CN(Cc1ccccc1)S(=O)(=O)c1ccc(NC(=S)NC(=O)C2CCCCC2)cc1	?	-27%
75	Cc1ccc(OCC(=O)NNC(=O)c2ccoc2C)c(Br)c1	-11%	-8%
76	Cc1c(NC(=O)c2cc(-c3ccc(Br)cc3)on2)c(=O)n(-c2ccccc2)n1C	-25%&-16%	-13%&-2%
77	CC(=O)N1CCc2c(sc3c2c(=O)n(-c2ccccc2)c(=O)n3Cc2ccccc2Cl)C1	-5%	-10%
78	CCN(CC(=O)Nc1ccc(NC(C)=O)cc1)C(=O)c1n[nH]c(=O)c2ccccc12	-8%	-1%
79	CC(=O)Nc1ccc(NC(=O)C(C)N2CCN(S(=O)(=O)c3ccc(C)cc3)CC2)cc1 (stereo unspecified)	-13%	-18%
80	O=C(CCC(=O)N1CCOc2ccc(Cl)cc21)NCc1ccccc1	i	-2%
81	CCCCOc1ccc(S(=O)(=O)NCc2csc(-c3ccc(OC)cc3)n2)cc1	-17%	-16%
82	COc1cc(C(=O)OCC(=O)N2CCC(Cc3ccccc3)CC2)cc(OC)c1OC	-15%	-2%
83	COc1ccc(CCn2nnnc2C(CC(C)C)N2CCN(c3ncccn3)CC2)cc1OC (stereo unspecified)	-15%	-5%
84	CCCCCCN1C[C@@H](O)[C@H](n2cc(-c3ccc(F)cc3)nn2)C[C@@H]1c1ccc(C)cc1	-3%	-23%
85	O=C(/C=C/c1cccc([N+](=O)[O-])c1)Nc1cc(C(=O)O)cc(C(=O)O)c1	7%	-3%
86	Cc1cccc(NC(=O)CSCC(=O)Nc2ccc(S(=O)(=O)N3CCCCC3)cc2)c1	?	-21%
87	O=C(Oc1ccccc1)N1CCN(C(=O)c2ccco2)CC1	-8%	-18%
88	CO/N=C/CC(=O)c1cnc(-c2ccc(Cl)cc2)s1	-1%	-3%
89	O=C(O)COc1ccc(S(=O)(=O)NCCc2ccccc2)cc1	1%	-9%
90	O=c1[nH]c2ccc(S(=O)(=O)N3CCCCC3)cc2[nH]c1=O	/	-10%
91	NC(=O)c1c(N)[nH]c(C(=O)c2ccccc2)c1-c1ccccc1Br	-18%	-3%
92	COc1ccc(NC(=O)C(c2ccncc2)n2c(=O)c(-c3cc4ccccc4[nH]3)nc3ccccc32)cc1 (stereo unspecified)	?	?
93	CCN(CC)C(=O)C1=C(C)N(CCCN2CCCC2=O)C(=O)C(CC(=O)NCc2ccco2)C1 (stereo unspecified)	i	6%
94	CCCN1Cc2cccc(C(=O)Nc3cccc(C(=O)OCC)c3)c2C1=O	-4%	0%
95	CN(c1ccccc1)S(=O)(=O)c1ccc(Cl)c(C(=O)OCC(=O)N2CCOCC2)c1	-6%	-9%
96	CC1(C)CC(=O)C(C(c2ccncc2)C2C(=O)CC(C)(C)CC2=O)C(=O)C1	-9%	-7%
97	O=C(O)c1ccccc1Nc1cc(Cl)c2nonc2c1[N+](=O)[O-]	-2%	-2%
98	CCN(CC)CCC(O)(c1ccc2c(c1)OCO2)c1cc(OC)c(OC)c(OC)c1 (stereo unspecified)	-15%	-6%
99	COc1ccc(OC)c2c1sc(=NC(=O)C(C)C)n2C	-14%	-22%
100	COc1ccccc1CNc1nc(NCc2ccccc2OC)c2sccc2n1	?	?
101	O=C(CN1CCN(c2ccccc2)CC1)Nc1ccc2c(c1)OCCO2	i	-8%
102	CCCC(C)NC(=O)c1c2c(nc3ccccc13)CCC2 (stereo unspecified)	-6%	-1%
103	CC(NC(=O)CCNS(=O)(=O)c1cccc2nsnc12)c1ccccc1 (stereo unspecified)	-15%&-11%	-11%&1%
104	CCOC(=O)c1ccc(NC(=O)c2c(O)[nH]c(=O)[nH]c2=O)cc1	-16%[1.46 µM]	-16%
105	O=C(c1ccco1)N1CCN(/C=C2\Nc3ccccc3C(=O)N2c2ccc(F)cc2)CC1	-12%	-4%
106	Cc1noc(C)c1Cc1ccc(O)cc1	-18%	-5%
107	O=C1O[C@@H](c2ccccc2)C[C@@H](O)[C@H](O)CCc2ccccc21	35%[activator]	-3%
108	C/C(=N\NS(=O)(=O)c1ccc(Cl)cc1)c1ccc(NC(=O)c2ccco2)cc1	-1%	-15%
109	CS(=O)(=O)Nc1cccc(C2=NN(S(C)(=O)=O)C(c3ccc4c(c3)OCO4)C2)c1 (stereo unspecified)	-21%	-21%
110	O=C(/C=C/c1ccccc1)NCCOc1ccccc1	-2%	-4%

# In a second layout: results already given
73	COc1ccc(N2CC(NS(=O)(=O)c3ccc4ccccc4c3)CC2=O)cc1OC (stereo unspecified)
74	CN(Cc1ccccc1)S(=O)(=O)c1ccc(NC(=S)NC(=O)C2CCCCC2)cc1
75	Cc1ccc(OCC(=O)NNC(=O)c2ccoc2C)c(Br)c1
76	Cc1c(NC(=O)c2cc(-c3ccc(Br)cc3)on2)c(=O)n(-c2ccccc2)n1C
77	CC(=O)N1CCc2c(sc3c2c(=O)n(-c2ccccc2)c(=O)n3Cc2ccccc2Cl)C1
78	CCN(CC(=O)Nc1ccc(NC(C)=O)cc1)C(=O)c1n[nH]c(=O)c2ccccc12
entry no. | 73 | 74 | 75 | 76 | 77 | 78
VACV mCherry inh | i | ? | -11% | -25%&-16% | -5% | -8%
VACV Venus inh | -14% | -27% | -8% | -13%&-2% | -10% | -1%
